Source: PubChem
Pin1 inh: inhibitors of human Pin1. Q13526. Pin1 FP peptide displacement, HiFluor488, 10 min. Potency, µM (series often up to 115 µM), for inactives: top-dose activity, negative = inhibition, actives largely listed as inhibitors. 390,000 compounds, 0.009% hits. AID 504891; active means well fitted inhibition curve with a large enough effect in the polarisation, with a control signal flat, not every such curve was filed as active; inconclusive means small, poorly fitted or top-dose-only effect, or effect the other way, or a change in a side signal; inactive means no such curve, though single readings can be large or run the other way; the % refers to the polarisation; further: on the % scale 0 is the no-effect control and ±100 the full control effect
Target sequence (Q13526 whole entry, looked up): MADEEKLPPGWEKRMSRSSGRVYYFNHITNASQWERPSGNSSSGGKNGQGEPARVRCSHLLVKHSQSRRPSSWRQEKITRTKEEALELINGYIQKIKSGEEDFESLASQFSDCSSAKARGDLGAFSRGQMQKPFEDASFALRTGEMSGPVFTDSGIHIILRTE
Tb PGK inh: T. brucei PGK inhibition | P07378 | 380,000 compounds, 0.043% hits | AID 602233 | Potency, µM (series often up to 57.5 µM), for inactives: at the top dose activity change, negative = inhibition, hits mostly inhibitors | PGK/GAPDH coupled, Kinase-Glo luminescence, 60 min; further: on the % scale 0 is the no-effect control and ±100 the full control effect; nearly all actives have a fitted effect of over 60% in size
Target sequence (P07378 whole entry, looked up): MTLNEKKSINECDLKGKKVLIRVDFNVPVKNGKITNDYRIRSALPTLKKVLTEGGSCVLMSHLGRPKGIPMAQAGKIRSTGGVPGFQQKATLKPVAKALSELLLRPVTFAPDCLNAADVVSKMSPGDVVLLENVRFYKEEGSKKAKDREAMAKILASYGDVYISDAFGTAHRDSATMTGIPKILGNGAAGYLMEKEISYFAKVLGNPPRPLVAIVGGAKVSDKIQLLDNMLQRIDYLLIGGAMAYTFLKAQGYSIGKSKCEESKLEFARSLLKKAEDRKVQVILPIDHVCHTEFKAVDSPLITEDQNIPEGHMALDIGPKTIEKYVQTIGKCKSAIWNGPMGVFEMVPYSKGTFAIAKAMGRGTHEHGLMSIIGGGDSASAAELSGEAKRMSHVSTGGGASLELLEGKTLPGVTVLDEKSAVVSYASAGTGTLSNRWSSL
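Recombinant glycosomal PGK reaction used 1,3-bisphosphoglycerate generated in-well by GAPDH (100nM final) in 100mM TEA pH 7.6, 5mM MgCl2, 0.01% Tween-20. After 60 minutes at room temperature, ATP was read by Kinase-Glo Plus luminescence end-point.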
GLS inhibitor: inhibitors of human glutaminase (GLS); 410,000 compounds, 0.21% hits; GLS enzymatic activity, qHTS titration; Potency, µM (doses to about 45.5 µM), for inactives: at the top dose activity change, negative = inhibition, usual class: inhibitors; O94925; further: on the % scale 0 is the no-effect control and ±100 the full control effect
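Compounds were pin-transferred onto hKGA, after which L-glutamine (1 mM solution) and a detection mix of glutamate oxidase, HRP and Amplex Red were added. Initial and 30 min RT fluorescence reads were collected.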
JMJD2A Tudor: blocks the human JMJD2A Tudor domain | AlphaScreen JMJD2A-Tudor / H3K4me3 peptide binding | Potency, µM (top dose mostly 114 µM), inactives show at the highest dose activity change, negative = inhibition, most hits filed as inhibitors | 390,000 compounds, 4.4% hits; further: on the % scale 0 is the no-effect control and ±100 the full control effect; nearly all actives have a fitted effect of over 50% in size
HP1b binding inh: inhibitors of HP1-beta chromodomain binding to methylated histone tails; P83916; AlphaScreen HP1-beta / biotin-H3K9me3 peptide binding; Potency, µM (highest dose often 114 µM), inactives show at the highest dose activity change, negative = inhibition, most hits filed as inhibitors; 390,000 compounds, 0.56% hits; AID 540317; further: nearly all actives have a fitted effect of over 70% in size; inactives centre near 23
Target sequence (P83916 whole entry, looked up): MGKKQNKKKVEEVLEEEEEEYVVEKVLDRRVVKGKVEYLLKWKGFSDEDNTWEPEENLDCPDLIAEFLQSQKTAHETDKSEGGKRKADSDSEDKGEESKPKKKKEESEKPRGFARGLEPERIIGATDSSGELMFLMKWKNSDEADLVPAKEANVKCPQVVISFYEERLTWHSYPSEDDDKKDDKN
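Compound inhibition of the preformed complex between 50 nM HP1-beta and 50 nM biotinylated H3K9me3 peptide was read by AlphaScreen. Buffer was PBS pH 7.4 with 0.01% Tween-20. Incubations ran 30 min at room temperature, with 10 ug/mL donor/acceptor beads.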
RGS4 inh: inhibitors of human regulator of G protein signaling 4 | Transcreener GDP fluorescence polarization, RGS4-accelerated GTP hydrolysis | Potency, µM (series often up to 114 µM), for the others: at the highest dose activity change, negative = inhibition, hits mostly inhibitors | 390,000 compounds, 0.039% hits; further: on the % scale 0 is the no-effect control and ±100 the full control effect; nearly all actives have a fitted effect of over 75% in size; some results filed as inactive show a strong effect at the top dose
Target sequence (P49798 whole entry, looked up): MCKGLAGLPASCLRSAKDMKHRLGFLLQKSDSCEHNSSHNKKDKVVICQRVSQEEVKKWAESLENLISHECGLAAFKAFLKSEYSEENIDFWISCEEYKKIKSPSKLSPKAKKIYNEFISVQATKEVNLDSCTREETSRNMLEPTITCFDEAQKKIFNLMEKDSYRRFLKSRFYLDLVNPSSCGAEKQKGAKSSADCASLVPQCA
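MLSMR compounds (23 nl, pin-transferred) preincubated 10 min at room temperature with a 500nM (2x) first reagent, then RGS4 at 900nM (2x) plus Transcreener GDP mix added; fluorescence polarization (620/688 nm) read before and after 90 min at 30 °C.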
ERG-DNA inh: blocks human ERG Ets domain binding to DNA; P11308; fluorescence polarization, His-ERG Ets domain / labelled DNA; Potency, µM (series often up to 76.9 µM), for the others: at the top dose FP activity, negative = inhibition, usual class: inhibitors; 370,000 compounds, 0.028% hits; AID 624246; active means well fitted inhibition curve with a large enough effect in the polarisation, with a control signal flat; inconclusive means small, poorly fitted or top-dose-only effect, or effect the other way, or a change in a side signal; inactive means no such curve, though single readings can be large or run the other way; the % refers to the polarisation;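 further: polarization taken with two DNA probes labelled with fluorescein and Texas red; % of control where 0% means no effect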
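His-tagged ERG Ets domain (1 uM in the protein solution; 300mM KCl, 50mM Tris-HCl, 1mM EDTA, 1mM DTT, pH 7.5) received compound, then a probe mix of 5 nM fluorescein-DNA and 100nM Texas-615-DNA. Fluorescence polarization was read for both dyes.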
rTrxR1 inhibitor: rat TrxR1 inhibition; O89049; 390,000 compounds, 1% hits; recombinant rTrxR1, NADPH fluorescence consumption, selenite substrate; Potency, µM (series often up to 114 µM), inactives show top-dose activity change, negative = inhibition, actives largely listed as inhibitors; further: on the % scale 0 is the no-effect control and ±100 the full control effect; nearly all actives have a fitted effect of over 65% in size
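Rat TrxR1 (90 nM in the dispensed reagent) was pre-reduced with 400 uM NADPH for 5 min at room temperature, then incubated with compound for 15 min. After 400 uM selenite was added, NADPH fluorescence (Ex 340/Em 450 nm) was followed for 8 min.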
Active calls of the source: *; i = inactive; ? = inconclusive; . = not tested or not shown; & = joins results of further samples; [ ] = another dose, or the depositor's remark. Unless noted, the call rests on the fitted dose curve; in most records, active means well fitted curve in the direction sought with a large enough effect; inconclusive means small, poorly fitted or top-dose-only effect, or another doubt; inactive means no such curve, though single readings can be large; an effect the other way counts as inactive or inconclusive. Potency means the concentration at half of the fitted maximal effect. Some of the compounds tested (hit frequency here may not be typical).

SMILES	Pin1 inh	Tb PGK inh	GLS inhibitor	JMJD2A Tudor	HP1b binding inh	RGS4 inh	ERG-DNA inh	rTrxR1 inhibitor
Cc1ccc(-c2noc(-c3ccoc3C)n2)cc1	0%	3%	8%	49%[activator]	.	11%	6%	12%
O=C(O)C1C2C=CC(C2)C1C(=O)NCCC1=CCCCC1 (configuration not stated)	-2%	.	2%	-16%	32%	-9%	.	1%
C/C(=N\NC(=O)c1nnn(-c2nonc2N)c1CSc1ccc(Cl)cc1)c1cccnc1	6%	10%	7%	-14%	30%	19%	-7%	10%
O=[n+]1cc(-c2ccccc2)n([O-])c2c1CCCCC2	-1%	-9%	4%	-16%[57.1 µM]	29%	8%	-5%	0%
CCc1ccc(Oc2c(C(F)(F)F)oc3c(CN4CCC(C)CC4)c(O)ccc3c2=O)cc1	-5%	9%	2%	7%	38%	-7%	7%	22%
CCn1c(SCc2ccc(F)cc2Cl)nc(=O)c2c(C(=O)OC)cc(C3CC3)nc21	10%	-12%	-20%	-27%	17%[57 µM]	17%	-6%	15%[57.1 µM]
N#Cc1cnn(-c2ccccc2)c1NC(=O)c1ccccc1F	-2%	4%	-6%	-16%	.	5%	-5%	-14%
O=C(CN1C(=O)C2C3C=CC(C3)C2C1=O)Nc1nncs1 (configuration not stated)	0%	-1%	-3%	-2%	18%	13%	-24%	-3%
CC(=O)Nc1ccc(CN2CCCC(CO)(Cc3ccccc3C)C2)cc1 (configuration not stated)	-3%	i	-8%	-15%	11%	-6%	-10%	4%[57.1 µM]
CN(C(=O)COC(=O)c1cccnc1Nc1cccc(C(F)(F)F)c1)C1CCS(=O)(=O)C1 (configuration not stated)	7%	-11%	2%	-7%	35%	-14%	4%	7%
Cn1c(=O)c2c(ncn2CCOc2ccc(Br)cc2)n(C)c1=O	-12%	-8%	-7%	-3%	10%	6%	-20%	21%
COc1ccc(OC(=O)CCc2c[nH]c3ccccc23)cc1	-4%	i	-3%	-16%	6%	-25%	13%	14%[57.1 µM]
COc1ccccc1Nc1ccc(NS(=O)(=O)c2ccc(C(C)=O)cc2)cc1	-1%	7%	33%	40µM*	?	12%	-7%	6%
Cc1nc2ccc(Cl)cc2n1C	.	i	-4%	.	.	.	.	.
COc1ccccc1NS(=O)(=O)c1cc(C(=O)N2CCCCCCC2)ccc1C	6%	-3%	14%	-14%	31%	16%	3%	3%
O=C(c1ccc(F)cc1)C1CCN(C(=O)c2ccccc2F)CC1	6%	-1%	1%	6%	34%	-10%	6%	12%
CC(=O)CCc1oc2ccc([N+](=O)[O-])cc2c1-c1ccc(C)o1	-8%	-8%	-2%	-11%	32%	-29%	-6%	9%[57.1 µM]
C=CCS(=O)(=O)N1CCC(CCOc2ccccc2)(C(=O)OCC)CC1	-1%	-4%	-2%	14%	.	-15%	-4%	13%
CCCCOC(=O)C1=C(C)Nc2nnnn2C1c1ccc(OC)c(OC)c1OC (configuration not stated)	-2%	-11%	.	-2%	9%	-31%	-4%	-15%
Fc1cccc(CN2CCCCCCC2)c1	5%	-5%	-8%	2µM*	?	3%	-4%	21%
C=CCn1c(C(CC)CC(C)(C)O)n[nH]c1=S (configuration not stated)	-3%	-8%	-3%	-16%	.	-16%	-9%	?
CCC(=O)NC(=S)Nc1ccc(NC(=O)c2ccco2)c(Cl)c1	-5%	2%	-8%	2%[11.4 µM]	-9%	-31%	16%	14%[57.1 µM]
CCOc1ccccc1NC(=S)N(Cc1cc2ccc(C)cc2[nH]c1=O)CC1CCCN1CC (configuration not stated)	4%	-8%	2%	-10%	24%	-13%	-2%	-11%
O=[N+]([O-])c1ccc(-c2nc(-c3cccs3)c(-c3cccs3)[nH]2)cc1	?	2%	-18%	20µM*	?	-13%	0%	3%
CCCC(C)NC(=O)c1cccc(Oc2ccccc2)c1 (configuration not stated)	2%	2%	-9%	6%	.	16%	-13%	7%[57.1 µM]
Cc1nc(NCC2CCCO2)[nH]c(=O)c1CCC(C)C (configuration not stated)	-1%	-7%	-1%	-15%	30%	-40%	5%	12%
O=C(NCC1CCN(Cc2cccc(Cl)c2)CC1)Nc1ccccc1Cl	-9%	-12%	3%	-21%	12%	5%	-3%	13%
C/C(CC1CC2=C(CC1(C)C)C(C)(C)CCC2)=N\NC(N)=S (configuration not stated)	-9%	.	?	-34%	?	-74%	-5%	-18%
COc1ccc(C(=O)Sc2nncc3ccccc23)cc1	-6%	-7%	0%	?	11%	-10%	0%	?
CC1CCCC(C)N1C(=S)NCc1ccco1 (configuration not stated)	-1%	-5%	0%	-1%	3%	-2%	-1%	23%[57.1 µM]
CCOc1ccc(N(CC(=O)NCCOc2ccc(C)cc2)S(=O)(=O)c2ccccc2)cc1	0%	-5%	-4%	-8%	.	-39%	-11%	3%[57.1 µM]
CN(NS(=O)(=O)c1ccc(Cl)cc1)c1ncc(C(F)(F)F)cc1Cl	?	0%	3%	3%	.	-18%	-6%	11%
Cc1sc2c(c1C)CN(C(C)(C)C)CN2C(=O)c1ccccc1	?	-7%	8%	-2%	22%	-16%	4%	?
O=C(N/N=C/c1ccc2c(c1)OCO2)c1ccc(Br)o1	-1%	-28%	0%	?	-8%	-52%	-13%	-13%
CC12CCC(C(=O)N(CC(O)CN3CCCCC3)C1=O)C2(C)C (configuration not stated)	0%	.	-2%	-10%	13%	12%	4%	22%
Cc1ccc(CNC(=O)C2CC3Cn4c(nc5cc6ccccc6cc54)C3N2C)o1 (configuration not stated)	6%	-1%	-10%	-14%	11%	-16%	-5%	-28%
Cc1ccc(S(=O)(=O)N2CCN(c3ncnc4ccccc34)CC2)cc1	?	-8%	-1%	-13%&-6%	.	-18%&4%	7%	5%&20%
O=C(O)c1cccc(-n2cccc2/C=C2/SC(=O)N(CC(=O)N3CCCC3)C2=O)c1	-4%	?	.	40µM*	?	-9%	-6%	15%[57.1 µM]
O=C1/C(=C\c2ccc(C(F)(F)F)cc2)CSc2sccc21	-4%	-12%	-4%	36%[activator]	.	1%	8%	13%
C=CCC(C#N)(c1ccc(OC)c(OC)c1)c1cnccn1 (configuration not stated)	1%	-2%	0%	-22%	16%	9%	-3%	20%[57.1 µM]

For convenience, 3 of the compounds above.
SMILES	Pin1 inh	Tb PGK inh	GLS inhibitor	JMJD2A Tudor	HP1b binding inh	RGS4 inh	ERG-DNA inh	rTrxR1 inhibitor
Cc1ccc(-c2noc(-c3ccoc3C)n2)cc1	0%	3%	8%	49%[activator]	.	11%	6%	12%
O=C(O)C1C2C=CC(C2)C1C(=O)NCCC1=CCCCC1 (configuration not stated)	-2%	.	2%	-16%	32%	-9%	.	1%
C/C(=N\NC(=O)c1nnn(-c2nonc2N)c1CSc1ccc(Cl)cc1)c1cccnc1	6%	10%	7%	-14%	30%	19%	-7%	10%

More structures
SMILES	Pin1 inh	Tb PGK inh	GLS inhibitor	JMJD2A Tudor	HP1b binding inh	RGS4 inh	ERG-DNA inh	rTrxR1 inhibitor
CN=C(Nc1cc(C)nn1-c1ccccc1)c1ccccc1F	0%	0%	-16%	-22%	.	-6%	-2%	18%
CCOc1cc(C2C3=C(CC(C)(C)CC3=O)N(C)C3=C2C(=O)CC(C)(C)C3)ccc1O	-1%	-2%	14%	-12%	13%	-4%	10%	6%
COc1ccc(NC(=S)Nc2nc(CC(=O)Nc3ccccc3OC)cs2)cc1	1%	-2%	0%	?	-17%	-43%	-10%	1µM*
CCOc1ccc(NC(=O)Nc2ccc3snnc3c2)cc1	0%	-6%	-1%	-10%	16%	0%	-5%	5%
NS(=O)(=O)c1ccc(NC(=O)c2ccccc2C(=O)N2CCCCC2)cc1	4%	-1%	12%	8%	39%	-25%	-1%	-4%
Cc1cccc(-c2cccc(NC(=O)C3CCCN(Cc4cccnc4)C3)c2)c1 (configuration not stated)	9%	-1%	6%	-28%	5%	11%	9%	1%
Cc1ccccc1NC(=O)c1ccc2c(c1)C(=O)N(CC(C)C)C2=O	0%	-3%	-6%	-1%	27%	2%	-1%	19%
COc1ccccc1NC(=O)Cc1csc(NC(=S)Nc2ccc(C)cc2)n1	4%	5%	10%	-26%	-11%	-16%	-1%	8.9µM*
COc1ccc(OCC(=O)Nc2cc(OC)cc(OC)c2)cc1	-2%	.	-1%	-9%	29%	-2%	.	1%
O=C(CSCc1ccc([N+](=O)[O-])cc1)NN=C1CCCCCC1	2%	-8%	4%	-11%	.	3%	3%	14%[57.1 µM]
CC(C)CC(=O)NCc1ccc2[nH]c3c(c2c1)CCCC3	?	-4%	8%	-32%	4%	-2%[56.9 µM]	-8%	-16%
CCC(C)NC(=O)C1CCN(S(=O)(=O)c2cccnc2)CC1 (configuration not stated)	-6%	-1%	-2%	8%	.	-30%	0%	34%[57.1 µM]
CCOC(=O)c1c(C)n(C)c2ccc(OC)c(NC(=O)CN3CCN(C(=O)c4ccco4)CC3)c12	-4%	i	5%	-7%	29%	-17%	0%	8%[57.1 µM]

Molecules listed so far that contain a COOH group:
SMILES	Pin1 inh	Tb PGK inh	GLS inhibitor	JMJD2A Tudor	HP1b binding inh	RGS4 inh	ERG-DNA inh	rTrxR1 inhibitor
O=C(O)C1C2C=CC(C2)C1C(=O)NCCC1=CCCCC1 (configuration not stated)	-2%	.	2%	-16%	32%	-9%	.	1%
O=C(O)c1cccc(-n2cccc2/C=C2/SC(=O)N(CC(=O)N3CCCC3)C2=O)c1	-4%	?	.	40µM*	?	-9%	-6%	15%[57.1 µM]
